# Source: PubChem
# Bead autofluor: flagged as autofluorescent in microsphere protease counterscreen. AID 624483. fluorescence intensity (concentration not given with the values). compound autofluorescence counterscreen, microsphere flow cytometry; hits give high values. hit rate 3.1% among 360,000;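 active means at least 3 SD above the mean of all compounds, about 16000 in these data; inconclusive means too few beads counted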;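 further: 100 nL of 1 mM stock went into each well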
# BJeLR viability: MLPCN primary cell-based screen for lethality selective to Ras in HRASV12 cells | BJeLR (HRASV12) viability, CellTiter-Glo ATP luminescence, 48 h; reference of the scale not given here | AID 1554, 2009 | inhibition, % (no concentration beside the values) | hit rate 0.17% among 300,000;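 active means replicate mean above 50%; inconclusive means above 50% but judged a plate artefact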;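 further: 50 nL library stock added to about 25 µL; numbers are from one replicate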
# Active calls of the source: *; ? = inconclusive; · = no result given.
SMILES,Bead autofluor,BJeLR viability
Nc1[nH]c(C(=O)c2ccccc2)c(-c2ccc([N+](=O)[O-])cc2)c1C(=O)NCCc1c[nH]c2ccccc12,4522,·
COc1ccc(Cc2c(-c3ccco3)nc3ccc(Cl)cn23)c(C)c1,4779,·
Cc1cc(Br)cn2c(Cc3cccc(Cl)c3)c(-c3cccc(Cl)c3)nc12,4550,·
COC(=O)Cc1ccc(OC2(C)CCN(Cc3ccccc3)C2)cc1 (centres undefined),3470,·
CCCNC(=O)C1(C)CCCN(C(=O)C(c2ccccc2)c2ccccc2)C1 (centres undefined),3278,·
CCN1C(=O)[C@H]2[C@@H](c3ccc(C)cc3)N[C@]3(CCCN(CC4CCCCC4)C3=O)[C@H]2C1=O,3765,·
O=C(Nc1ccc(Cl)c(C(F)(F)F)c1)C1Cc2c(-c3ccccc3)ccnc2O1 (centres undefined),3655,·
COc1ncc(-c2ccc(N3C(c4ccsc4)=Cc4ccccc4C3CC(C)=O)cc2)cn1 (centres undefined),4049,·
COC(=O)[C@]1(Sc2ccc(OC)cc2)CC(=O)N[C@@H]1c1ccccc1,5452,·
OC(c1ccc(Cl)cc1)c1ncc(-c2cccc(F)c2)[nH]1 (centres undefined),3644,·
Cc1cc(F)cc(-c2cc(C(=O)NCc3ccc(C(F)(F)F)cc3)[nH]n2)c1,3379,·
CC(=O)Nc1ccc(NC(=O)c2cc(-c3ccc(F)cc3C)n[nH]2)cc1,3791,·
O=C(NC1CCCCC1)c1cccc(NC(=O)c2ccccc2Cl)c1,3831,·
NS(=O)(=O)c1cccc(NC(=O)CSc2nnc(NC3CC3)s2)c1,3831,·
CCCCNC(=O)C1c2ccccc2OCC(=O)N1Cc1ccccc1 (centres undefined),5782,·

# A draw from above in order of SMILES length, highest first.
SMILES,Bead autofluor,BJeLR viability
Nc1[nH]c(C(=O)c2ccccc2)c(-c2ccc([N+](=O)[O-])cc2)c1C(=O)NCCc1c[nH]c2ccccc12,4522,·
COC(=O)[C@]1(Sc2ccc(OC)cc2)CC(=O)N[C@@H]1c1ccccc1,5452,·
CC(=O)Nc1ccc(NC(=O)c2cc(-c3ccc(F)cc3C)n[nH]2)cc1,3791,·
NS(=O)(=O)c1cccc(NC(=O)CSc2nnc(NC3CC3)s2)c1,3831,·
COC(=O)Cc1ccc(OC2(C)CCN(Cc3ccccc3)C2)cc1 (centres undefined),3470,·

# (more compounds)
SMILES,Bead autofluor,BJeLR viability
COCCCNC(=O)c1ccc2sc(C3=C[C@@H](O)[C@@H](O)[C@@H](CO)O3)nc2c1,3631,·
CCOC(=O)N1CCN(C(=O)c2ccc(CS(=O)c3cccc(C)c3)o2)CC1 (centres undefined),4462,·
CCCCCC(=O)N1C[C@H](O)[C@@H](n2cc(C3CC3)nn2)C[C@@H]1c1ccc(OC)cc1,3044,·
CCCCNC(=O)C[C@@H]1C[C@@]2(C(=O)OC)CCCCC=C2N(Cc2ccccc2)C1=O,5653,·
CN(C)CCNc1ncnc2c1ncn2[C@H]1CN(Cc2ccco2)C[C@@H](CO)O1,3736,·
CCOc1ccc2oc(C(=O)Nc3ccc(C)cn3)c(C)c2c1,3932,·
CN(CCCn1ccc(NC(=O)OCc2ccccc2)nc1=O)CCc1ccccn1,3557,·
CCOC(=O)c1cc2c(c(-c3cccc(-c4cc5ccccc5o4)c3)n1)[C@@H](CCO)N(S(=O)C(C)(C)C)C2 (some centres undefined),6294,·
CCCCn1nnnc1C(c1ccccc1)N1CCN(c2ccc(C(F)(F)F)cc2[N+](=O)[O-])CC1 (centres undefined),5750,·
CCCNC(=O)c1cc(C2CCCN(C(=O)C3CC3)C2)on1 (centres undefined),3318,·
COc1ccc(NC(=O)c2cc(C3CCCCN3S(=O)(=O)c3cccs3)on2)c(C)c1 (centres undefined),3503,·
COC(=O)Cn1c(C(=O)N2CCCC2)cc2c1C[C@H]1CN(C(=O)c3ccccc3)[C@@](Cc3ccc(OC)cc3)(C(=O)OC)[C@@H]21,5593,·
C[C@@H]1CN([C@@H](C)CO)C(=O)CCCn2nncc2CO[C@@H]1CN(C)C(=O)Nc1ccccc1,3703,·
COc1cccc(CNc2nc3cc(-c4ccc(OC)cc4C)sc3c(=O)n2C)c1,3747,·
CNc1cccc(-c2cc(OC)ccc2OC)n1,3468,·
CCOC(=O)C1=CCN(S(=O)(=O)c2ccc(F)cc2)C1c1cccc(C)c1 (centres undefined),5969,·
O=C1NC[C@H](CCCCN2CCN(CCC3CCCCC3)C(=O)C2=O)N(CC2CCCCC2)C1=O,6742,·
COc1ccc(-c2cc3c(c4c2ccn4C)C2CCC3C2)cn1 (centres undefined),2709,·
COC(=O)[C@]12CCCCC=C1N(Cc1cccc3ccccc13)C(=O)[C@H](CC(=O)NCCCCc1ccccc1)C2,5759,·
CCCC1NC(=O)c2cccnc2-n2c1nc1cc(C)cc(C)c1c2=O (centres undefined),3384,·
COc1ccc(NC(=O)N(C)C[C@@H]2OCc3cnnn3CCCC(=O)N([C@@H](C)CO)C[C@H]2C)c(OC)c1,3862,·
COc1cc(OC)cc(-c2noc([C@H]3C[C@H](O)[C@@H](CO)O3)n2)c1,3004,·
COc1ccc(-c2cnc3cccnn23)cn1,4094,·
COC(=O)[C@]12CCCCC=C1N(Cc1ccccc1)C(=O)[C@H](CC(=O)NCCCN1CCCC1=O)C2,4358,·
COc1cc2c(cc1CNC[C@H]1O[C@@H](n3ccc(N)nc3=O)[C@H](O)[C@@H]1O)OCO2,2988,·
O=C(NCC1CCCO1)c1cccc(S(=O)(=O)Nc2ccccc2Cl)c1 (centres undefined),4022,·
CCCCNC(=O)C1(C)CCN1C(=O)c1cccnc1Oc1ccccc1 (centres undefined),3544,·
OC[C@@H]1CN(Cc2ccncc2)C[C@H](n2cnc3c(NCc4ccco4)ncnc32)O1,4135,·
Cc1cnc(C)c(Nc2nc(C(N)Cc3ccc(F)cc3)cs2)n1 (centres undefined),2921,·
CC(=O)Nc1cc(-c2ccc(C(=O)NC3CC3)cc2)cn2c(-c3cccc(C(C)=O)c3)cnc12,3613,·

# Random excerpt: three compounds from above.
SMILES,Bead autofluor,BJeLR viability
Cc1cnc(C)c(Nc2nc(C(N)Cc3ccc(F)cc3)cs2)n1 (centres undefined),2921,·
COc1cc2c(cc1CNC[C@H]1O[C@@H](n3ccc(N)nc3=O)[C@H](O)[C@@H]1O)OCO2,2988,·
COc1cc(OC)cc(-c2noc([C@H]3C[C@H](O)[C@@H](CO)O3)n2)c1,3004,·

# (continued)
SMILES,Bead autofluor,BJeLR viability
CCOC(=O)N1CCN(C(=O)C[C@@H]2C[C@@]3(C(=O)OC)CCCCC=C3N(Cc3ccccc3)C2=O)CC1,5355,·
O=C1N(Cc2ccccc2)c2ccccc2OC1(F)F,3998,·
COC(=O)c1ccc2nc(C3CCCCC3)c(Cc3ccc(OC)cc3C)n2c1,4863,·
CCNC(=O)C1CCCN(C(=O)c2ccc(-c3ccccc3)cc2)CC1 (centres undefined),2741,·
CCCCCCCCC(=O)N1C(C)CCC1C (centres undefined),3860,·
Cc1ccc(S(=O)(=O)Nc2ccccc2C=NNC(=O)c2ccncc2)cc1,3347,·
CN(CC(=O)Nc1ccc(F)cc1)C(=O)COC(=O)c1nc(Cl)ccc1Cl,3992,·
COCCN1C(=O)COc2ccccc2C1C(=O)NCc1ccccc1 (centres undefined),5340,·
COC(=O)C1CC(c2ccccc2)N(c2ccccc2)O1 (centres undefined),3902,·
COCCN(CC(=O)Nc1cccc(C)c1C)C(=O)/C=C/c1ccc2c(c1)OCCO2,3910,·
CSC(=NS(=O)(=O)c1ccccc1)NNC(=O)c1c(-c2c(Cl)cccc2Cl)noc1C,5863,·
COc1cccc(C(c2nnnn2C2CCCCC2)N2CCC3(CC2)C(=O)NCN3c2ccccc2)c1OC (centres undefined),5355,·
CCOC(=O)NC(=S)Nc1cccc(C)n1,3613,·
CCOC(=O)CCCCCC(=O)Nc1ccc2c(c1)C(=O)N([C@H](C)CO)C[C@@H](C)[C@@H](CN(C)C(=O)CCC(F)(F)F)OCCCC[C@H](C)O2,3471,·
N#Cc1c(Cl)cccc1N1CCSCC1,6052,·
CCCCn1nnnc1C(c1ccccc1)N1CCN(c2ccc(F)cc2)CC1 (centres undefined),6238,·
CC(C)C[C@H]1CNC(=O)C(=O)N1C[C@@H]1CCCN1C[C@H](Cc1ccccc1)N1C[C@H](Cc2ccccc2)N(CCc2ccccc2)C(=O)C1=O,4958,·
COc1cccc(-c2cnc3c(NC=O)cc(-c4ccccc4Oc4ccccc4)cn23)c1,3774,·
Cc1ccc(-c2csc(C(O)c3ccc(F)c(F)c3)n2)cc1C (centres undefined),3599,·
O=C1NC[C@H](CC2CCCCC2)N(CCc2cccc3ccccc23)C1=O,4477,·
Cc1ccc(S(=O)(=O)N2C[C@H]3[C@H]4C(=O)N(Cc5ccccc5)C(=O)[C@H]4CC(=O)[C@H]3[C@@H]2c2ccccc2F)cc1,5831,·
Cc1cn([C@H]2C[C@H](O)[C@@H](CNCc3ccc(C#CCCO)cc3)O2)c(=O)[nH]c1=O,3548,·
C[C@@H]1CN([C@@H](C)CO)C(=O)CCCn2nncc2CO[C@H]1CN(C)C(=O)C1CC1,3803,·
O=C(NCc1ccc(Cl)nc1)c1ccc2sc([C@@H]3O[C@H](CO)[C@H](O)[C@H](O)[C@H]3O)nc2c1,3806,·
CNc1n[nH]c(-c2ccccc2)n1,3719,·
N#Cc1ccc(NC(=O)COC(=O)C2CCC2)cc1,2994,·
COc1cccc(CNC(=O)[C@@H]2CCCN2C(=O)[C@H]2CCCCN2C(=O)c2cccc(OC)c2)c1,5646,·
Cc1cccc(CN2CCN(C3CN(Cc4ccc(F)cc4)S(=O)(=O)C3)CC2)c1 (centres undefined),6081,·
S=c1[nH]nc(COc2ccccc2)n1/N=C/C=C/c1ccco1,3804,-3
C/C(CCC1CC(C)OC1=O)=N\NC(N)=O (centres undefined),6095,-5
COc1cccc(/C=N/n2cnc3c(cnn3-c3ccccc3)c2=O)c1,5618,-6
CCn1cc(/C=N/NC(=O)c2ccc(C#N)cc2F)c2ccccc21,10442,-5
CC1=NNC(=O)C1CC(=O)N/N=C/c1ccc(C)o1 (centres undefined),5943,-5
COc1ccc(/C=N/OC(=O)c2ccc(Cl)cc2)c(Cl)c1OC,5199,-5
COc1ccc([N+](=O)[O-])cc1NCc1ccco1,4038,10
Nc1c(C(=O)N/N=C/c2cccnc2)oc2nc(-c3ccco3)cc(-c3ccco3)c12,4409,6
CC1CCc2c(sc(/N=C/c3cccnc3)c2C(N)=O)C1 (centres undefined),5974,3
COc1ccc(/C=C\C(=O)NCC(=O)N/N=C/c2ccc(O)cc2O)cc1,3503,0
Cc1cc2c(cc1C)/C(=N/NC(=O)c1ccccn1)CCC2,6114,-10
COc1ccc(/C=N/n2c(C)nc3sc(C)c(C)c3c2=O)cc1,3518,2
COc1cccc(/C=N/NC(=O)C(c2ccncc2)N2CCOCC2)c1 (centres undefined),6068,0
COc1ccc2c(/C=N/Nc3ccc(C(=O)O)cc3)c[nH]c2c1,3954,5
Cc1ccc(/C=N/n2c(-c3cccc(Cl)c3)n[nH]c2=S)o1,6356,6
C/C(=N/NC(=O)c1ccn(C)n1)c1ccncc1,4254,-2
NC(N)=N/N=C/c1ccc(Cl)c(Cl)c1,4038,-9

# Structures above containing an aryl thioether with sulfur outside any ring, in the order listed:
SMILES,Bead autofluor,BJeLR viability
COC(=O)[C@]1(Sc2ccc(OC)cc2)CC(=O)N[C@@H]1c1ccccc1,5452,·
NS(=O)(=O)c1cccc(NC(=O)CSc2nnc(NC3CC3)s2)c1,3831,·

# (further entries)
SMILES,Bead autofluor,BJeLR viability
Cn1c2ccccc2c2nnc(N/N=C/c3ccc(O)cc3)nc21,3600,-3
O=C1c2ccccc2C(=O)c2c(Nc3ccc(CCO)cc3)ccc(O)c21,3082,12
CCOC(=O)c1c(/N=C/C2=C(O)CCCC2=O)sc2c1CCCC2,5452,-4
CC(C)=CCC/C(C)=C/C=N/NC(=O)c1ccccc1[N+](=O)[O-],9847,2
CC(=O)/C(=N/Nc1ccccc1[N+](=O)[O-])N1CCCc2ccccc21,4296,-4
C[C@H]1C/C=C/[C@H]2[C@H](O)[C@H](C)[C@@](C)(O)[C@H]3[C@H](Cc4ccccc4)NC(=O)[C@]32[C@H](O)/C=C/[C@](C)(O)C1,4061,9
Cc1sc2nc(C)n(/N=C/c3ccccc3O)c(=O)c2c1C,7977,2
S=c1[nH]nc(-c2cc(-c3ccccc3)n[nH]2)n1/N=C/C(Br)=C/c1ccccc1,?,-8
Cc1c(-c2ccc(/C=N/NC(=O)C(=O)Nc3ccccc3F)o2)cccc1[N+](=O)[O-],3493,0
CCNc1nc(NCC)nc(N/N=C/c2ccc(OC)cc2)n1,4415,3
COc1ccc(-c2ccc(/C=N/NC(=O)Cc3nnc(N)s3)o2)cc1Cl,5845,-4
COc1cccc(/C=N/NC(=O)NC2CCCCC2)c1O,3339,1
O=[N+]([O-])c1c(NCc2ccco2)ccc2nonc12,3935,-3
COC(=O)c1ccc(COc2ccccc2/C=N/NC(N)=O)o1,?,-1
CCOc1ccccc1/C=N/Nc1ccnc(=O)[nH]1,3685,1
COc1ccc(OC)c(-c2cc(C(=O)N/N=C/c3ccc(F)cc3)c3ccccc3n2)c1,4793,-3
C=CCNC(=S)N/N=C/c1cn(C)c2ccccc12,3654,9
O=C(N/N=C/c1ccc(-c2ccc([N+](=O)[O-])cc2)o1)c1cccnc1,5546,-1
CC1(C)CC(=O)C=C(NNC(=O)c2cccnc2)C1,3594,2
O=[N+]([O-])c1ccccc1-c1ccc(/C=N/n2cnnc2)o1,11600,0
Cc1ccc2nc(-c3ccccc3)cc(C(=O)NCC3CCCO3)c2c1 (centres undefined),3659,-6
CC(/C=N/NC(=O)c1cnccn1)=C\c1ccco1,6037,-7
C/C(=N/Nc1nc(-c2ccccc2F)nc2ccccc12)c1ccccc1O,?,4
COc1ccc(C(CCNCc2ccc(OC(C)C)cc2)C(C)C)cc1 (centres undefined),6107,-3
COCc1cc(=O)[nH]c(/N=C(\N)Nc2c(F)cccc2F)n1,3373,-14
O=C1N/C(=N/N=C/c2ccc(F)cc2)SC1c1ccccc1 (centres undefined),3995,-10

# An excerpt; rates above refer to the full screens.
